# Calb FLC = C. albicans growth inhibition with fluconazole, primary screen, CaCi-2 strain, Alamar Blue fluorescence | AID 1979, 2009 | actives 0.57% (n = 300,000) | C. albicans CaCi-2 (fluconazole-resistant clinical isolate) + fluconazole, 48 h | growth inhibition, % (test concentration not listed);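 active means most replicates above 75%; inconclusive means exactly half above 75%; inactive means most below 75%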;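 further: all wells also contain fluconazole at 8 µg/ml as a sub-toxic cotreatment; 0% = median of DMSO wells and 100% = median of geldanamycin control wells; wells of about 8 µL received 7.5 nL stock; the first replicate is given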
# Beta2AR agonist = beta2AR agonists driving receptor internalization, primary screen, cell-based, FAP fluorogen, flow cytometry. Beta-2 adrenergic receptor (Homo sapiens), P07550. Am2.2-beta2AR cells; reference of the scale not given here. response, % (test concentration not listed). actives 0.43% (n = 340,000);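 active means response above a set limit, near 3 SD of response in nonfluorescent compounds, cut at about 42% in these data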;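 further: stock transfer was 100 nL into about 11 µL; a reference agonist was the positive control; negative values mostly stem from fluorescent compounds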
# UCH37 DUB inh = inhibitors of human UCH37 deubiquitinase, primary screen, biochemical, Ub-AMC cleavage, fluorescence; actives 0.33% (n = 330,000); inhibition, % (no concentration beside the values); Ubiquitin carboxyl-terminal hydrolase isozyme L5 (Homo sapiens), Q9Y5K5; purified proteasome/UCH37;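 active means mean of two replicates above 20%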;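 further: 0% = compound-free wells with enzyme and 100% = wells lacking proteasome; stock transfer was 100 nL into about 20 µL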
#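 System: Proteasome-associated human UCH37 deubiquitinase; Input: 0.15 nM proteasome in added enzyme buffer; Also added: Ub-AMC substrate from 1 µM stock; Incubation: 30 min compound-proteasome preincubation then 25 min substrate reaction, room temperature; Detection: fluorescence, ex 355 nm, em 460 nm; Read-out: % inhibition of Ub-AMC cleavage fluorescence; Benchmarks: no-proteasome and no-compound wells.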
# LANA-H2B inh = blockers of LANA interaction with H2A/H2B – biochemical, FP readout, HTS, primary screen. Protein LANA1 (Human herpesvirus 8 type P (isolate GK18)), Q9QR71. inhibition, % (no concentration beside the values). cell-free LANA-H2A/H2B peptide, fluorescence polarization. AID 2629, 2010. actives 0.6% (n = 320,000); in the data active means inhibition mostly above about 10%, no sharp cut-off; inactive means mostly below about 6.7%;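 further: stock transfer was 7.5 nL into about 10 µL; 0% = median of vehicle wells and 100% = median of positive control wells; one replicate is shown; the record names a cut of 25% in any replicate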
# Target sequence (Q9QR71 whole entry, looked up): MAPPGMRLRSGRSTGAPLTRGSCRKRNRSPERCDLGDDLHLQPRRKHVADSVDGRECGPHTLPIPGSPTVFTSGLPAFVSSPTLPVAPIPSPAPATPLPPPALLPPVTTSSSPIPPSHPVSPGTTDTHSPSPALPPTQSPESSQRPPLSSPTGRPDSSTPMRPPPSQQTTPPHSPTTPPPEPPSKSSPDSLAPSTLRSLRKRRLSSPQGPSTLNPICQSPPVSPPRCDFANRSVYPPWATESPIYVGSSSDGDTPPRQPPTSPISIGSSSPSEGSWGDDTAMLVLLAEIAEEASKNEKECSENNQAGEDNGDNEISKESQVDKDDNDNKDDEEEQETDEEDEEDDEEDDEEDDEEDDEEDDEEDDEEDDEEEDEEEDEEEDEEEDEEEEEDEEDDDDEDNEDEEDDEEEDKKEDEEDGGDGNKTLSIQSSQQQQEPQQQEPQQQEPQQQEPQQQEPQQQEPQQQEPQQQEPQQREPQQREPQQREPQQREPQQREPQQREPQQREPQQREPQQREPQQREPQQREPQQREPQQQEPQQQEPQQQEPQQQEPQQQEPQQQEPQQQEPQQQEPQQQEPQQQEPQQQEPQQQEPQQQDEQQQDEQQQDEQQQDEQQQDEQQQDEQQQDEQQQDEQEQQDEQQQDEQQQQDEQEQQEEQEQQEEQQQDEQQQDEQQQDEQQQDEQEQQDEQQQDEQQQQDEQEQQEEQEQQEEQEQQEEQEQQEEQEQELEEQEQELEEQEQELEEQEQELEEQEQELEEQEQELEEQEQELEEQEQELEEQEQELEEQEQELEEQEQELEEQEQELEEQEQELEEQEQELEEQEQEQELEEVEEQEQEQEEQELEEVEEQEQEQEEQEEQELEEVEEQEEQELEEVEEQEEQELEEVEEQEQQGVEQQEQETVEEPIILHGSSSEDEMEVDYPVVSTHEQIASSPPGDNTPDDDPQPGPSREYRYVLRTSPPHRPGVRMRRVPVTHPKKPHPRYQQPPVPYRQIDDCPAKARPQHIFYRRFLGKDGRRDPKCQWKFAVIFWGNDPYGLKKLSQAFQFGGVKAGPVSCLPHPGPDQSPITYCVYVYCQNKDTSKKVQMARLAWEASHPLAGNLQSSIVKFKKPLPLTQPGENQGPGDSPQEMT
# RanGTP-Impb inh = inhibitors of RanGTP-importin-beta interaction, primary screen, biochemical, FRET, CFP-Ran, YFP-importin-beta, homogeneous. Ran GTPase (GTP-bound) - importin-beta complex. cell-free CFP-Ran/YFP-importin-beta FRET ratio. inhibition, % (no concentration beside the values). actives 1.1% (n = 300,000). AID 2216, 2009;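 active means most replicates above 15%; inconclusive means exactly half above 15%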;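 further: 0% = DMSO wells and 100% = Ran loaded with GDP instead of GTP; wells of about 40 µL received 100 nL stock; the first replicate is given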
# A1 inh = caspase 3/7 activation in MEF A1-2A-BIM cells, primary screen, A1 inhibitor project, cell-based, luminescence, HTS. Caspase-Glo 3/7 luminescence, 3 h; percent of clofoctol response, vehicle zero. caspase activation, % (concentration not given with the values). actives 0.066% (n = 330,000);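 active means over half of replicate activation scores above 10%, or exactly half above 10 with the replicate mean above 10; inconclusive means replicate mean below 10 yet half the replicates above 10; inactive means over half of replicates below 10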;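 further: wells of about 30 µL received 50 nL stock; many hits fall short of the cut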
# Beta cell apopt = inhibitors of cytokine-induced beta cell apoptosis, primary screen, luminescence; AID 435005, 2010; INS-1E cytokine-induced death, ATP luminescence, 48 h; percent of positive-control rescue, neutral wells zero; actives 0.8% (n = 300,000); protection from apoptosis, % (test concentration not listed);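 active means all replicates at 75% or more, or half of them and the mean; inconclusive means half reach 75% but not the mean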;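 further: 0% = cytokine-treated negative control wells and 100% = positive control rescue; higher means more ATP so stronger rescue from cytokine killing; wells of about 40 µL received 100 nL stock; the first replicate is given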
# T cruzi inh = inhibitors of intracellular T. cruzi growth, primary screen, luminescence, NIH3T3 host cells | T. cruzi beta-gal in NIH3T3, 90 h | inhibition, % (test concentration not listed) | actives 1.4% (n = 300,000);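 active means mean inhibition across valid replicates above about 55%, limit read from the data; inconclusive means mean below that limit but half or more replicates reach it; inactive means mean below it, under half of replicates reach it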;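 further: signal also drops with host cell toxicity which is not excluded here; 0% = plate median of DMSO wells and 100% = zero luminescence signal; higher percent means less beta-gal luminescence so fewer parasites; stock transfer was 50 nL into about 50 µL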
# Active calls of the source: *; i = inactive; ? = inconclusive; nt = not tested or not shown.
SMILES,Calb FLC,Beta2AR agonist,UCH37 DUB inh,LANA-H2B inh,RanGTP-Impb inh,A1 inh,Beta cell apopt,T cruzi inh
O=C(NCc1cccnc1)c1ccc(N2CCOCC2)c([N+](=O)[O-])c1,-1,11,2.1,1.4,-0.4,0.7,5,-10
NNC(=O)c1ccc(OCC2CC(c3ccc(Cl)cc3)=NO2)cc1 (stereo not given),-1,3,-1.6,1.8,3.1,-1.1,0,18
CCn1cc(S(=O)(=O)c2ccc(OC)cc2)c(=O)c2cc(F)c(N3CCN(C)CC3)cc21,-1,3,-67,-2.6,1.3,-0.8,-6,8
COc1cc2c(cc1OC)C[N+](C)(C)CC2,1,4,nt,-5.2,0.3,0.9,6,-14
CC1(C)C(=O)Nc2ccccc2N1C(=O)COC(=O)CNS(=O)(=O)c1ccc(F)c(F)c1F,nt,20,2.6,7.3,nt,-0.1,-20,nt
N#Cc1cccc(C#N)c1Oc1ccc(S(=O)(=O)Nc2ccc(Cl)cc2)cc1,4,5,4.1,-2.0,-0.8,0.8,7,30
CCOc1cc(-c2cc(-c3ccc(NC(C)=O)cc3)nc(N)c2C#N)ccc1O,24,23,-100,4.0,0.3,0.5,13,8
O=C(CSc1cn(CC(=O)N2CCCCC2)c2ccccc12)NCC1CCCO1 (stereo not given),0,-3,2.0,-1.5,0.5,0.1,2,8
Cc1nc(C(=O)NCc2ccccc2)sc1C1(C)CC(c2ccccc2)=NO1 (stereo not given),-1,-1,5.9,-0.5,-2.6,0.5,-11,2
Cc1cc(C)c(NC(=O)CSc2nnc(-c3ccccn3)n2N)c(Cl)c1,7,-5,0.6,-5.6,2.5,0.2,-5,-19
COc1ccc(CNc2cc(C)ccn2)c(O)c1,-1,-5,1.1,0.7,-2.2,0.6,nt,-1
CC1S/C(=C(\C#N)C(=O)NCc2ccco2)N(Cc2ccco2)C1=O (stereo not given),21,-1,-0.5,-1.0,-6.5,0.5,4,?
CCOC(=O)C1CCN(c2cc(=O)n(C3CCCCC3)c(=O)[nH]2)CC1,6,4,-3.0,-4.3,51*,0.6,-5,-4
N#CC1=C(N)Oc2n[nH]c(-c3cccs3)c2C1c1ccco1 (stereo not given),17,4,-4.9,-5.7,1.4,0.7,-10,-11
CCOc1ccc(NC(=O)CCS(=O)(=O)c2ccc(C)cc2)cc1,0,-3,1.8,-1.2,0.0,-0.2,-15,-7
COc1ccc2oc(C(=O)NCC3CCCO3)c(C)c2c1 (stereo not given),-6,-12,-15,5.5,-1.3,-2.9,-4,7
C=CCn1cc(-c2cccc(Cl)c2)cc(C#N)c1=O,-2,-9,-42,8.5,1.1,-0.6,0,-5
CN1C(=O)C(c2ccccc2[N+](=O)[O-])C(=O)c2ccccc21 (stereo not given),0,-6,6.1,0.9,?,-0.6,-3,-21
CCOC(=O)N1CCN(C(=O)c2cn(CC)c3ccc(S(=O)(=O)N4CCC(C)CC4)cc3c2=O)CC1,10,-9,7.8,0.0,4.0,2.5,-5,-8
CC1(c2ccccc2)CC(C)(C)N2C(=O)C(=O)c3cccc1c32 (stereo not given),7,5,nt,-3.9,3.2,0.0,-9,12
CCN(C(=O)CN1CCN(c2ccccc2)CC1)c1c(N)n(Cc2ccccc2)c(=O)[nH]c1=O,1,-13,2.5,0.9,6.6,0.3,-4,8
CCCN(CCC)S(=O)(=O)c1ccc(C(=O)OCCN2C(=O)c3cccc4c(N5CCOCC5)ccc(c34)C2=O)cc1,28,-24,-9.2,nt,i,1.7,1,-8
CSCC[C@H](NC(=O)OC(C)(C)C)C(=O)N1CCC(C(=O)N[C@@H](C)C(=O)O)CC1,1,-1,1.2,-2.2,?,nt,nt,-26
COc1ccc(C2=NN(C(=O)CSc3nnnn3C)C(c3ccco3)C2)cc1 (stereo not given),nt,-1,1.0,8.2,nt,0.7,-2,nt
Cc1ccc(CN(C)C(=O)COC(=O)CSc2cc(C)c3ccccc3n2)cc1,nt,-2,5.1,-4.8,nt,-0.8,-7,nt
O=C(NC(=S)Nc1ccccc1N1CCOCC1)c1ccc(-c2ccccc2F)o1,21,8,3.9,-7.5,-3.9,-3.4,2,-29
O=C(NC(Cc1ccccc1)C(=O)O)/C(=C\c1ccco1)NC(=O)c1ccccc1 (stereo not given),23,4,1.8,0.4,4.5,0.8,-3,-23
CC(C)(C)c1ccc(Oc2ccc(NC(=O)c3ccco3)cn2)cc1,7,14,2.0,-2.3,-1.1,1.6,75*,-9
COc1ccc(CCNc2nc(-c3cccnc3)nc3ccccc23)cc1OC,22,21,4.1,0.4,-0.3,-0.8,3,27
Cn1ccnc1SCC(=O)N1CCN(S(=O)(=O)c2ccccc2)CC1,0,2,-1.9,-1.9,1.0,0.2,1,-5
Cc1cc(C)c(C(N)=O)c(Nc2cccc3ccccc23)n1,5,-2,3.9,0.6,-0.6,0.1,21,-8
COc1ccc(S(=O)(=O)NCCc2cc3ccc(C)c(C)c3[nH]c2=O)cc1,0,-6,-3.3,-1.3,-0.4,0.0,-5,8
COc1ccc(CCC(=O)NCC23CC4CC(CC(C4)C2)C3)cc1,5,0,-0.2,-0.6,5.1,-0.6,0,14
C[C@H](CO)N1C[C@H](C)[C@@H](CN(C)Cc2ccncc2)Oc2c(NS(=O)(=O)c3ccc(Cl)cc3)cccc2C1=O,nt,6,1.6,-1.1,nt,-0.6,3,nt
Cc1csc(NC(=O)c2ccc(C)c(S(=O)(=O)N3CCCCC3)c2)n1,0,7,3.1,-1.0,2.1,0.1,-2,6
CCOC(=O)c1c(-c2ccc(OC)cc2)csc1NC(=O)CSc1ncnc2sccc12,23,-2,1.0,-2.9,-3.4,0.2,23,23
Clc1ccc(-c2nnc(-c3cccc4ccccc34)o2)cc1Cl,-2,13,i,-1.5,0.9,0.4,-9,-6
O=C(N/N=C/c1cccnc1)c1ccccc1OCc1ccc(Cl)cc1,-10,nt,nt,-1.4,0.2,-0.6,5,28
CCN(CC(=O)Nc1ccccc1OC)C(=O)c1cccc(-n2cccc2)c1,11,-10,1.4,0.6,1.4,0.0,7,11
COc1ccccc1NS(=O)(=O)c1cc(NC(=O)c2cccnc2)ccc1N1CCCCC1,nt,10,1.3,-4.2,nt,-0.1,36,nt
COc1ccc(C2C(C(=O)N3CCN(c4ccccc4)CC3)c3ccccc3C(=O)N2C)cc1OC (stereo not given),-10,1,4.9,2.0,-1.5,?,0,-6
COc1ccc(/C=N/N2CCN(c3ccccc3OC)CC2)cc1OC,-13,4,nt,0.6,4.6,-3.6,-4,-12
COc1ccccc1/C=C/C(=O)OCC(=O)Nc1cc(C(F)(F)F)ccc1N1CCOCC1,11,5,0.9,nt,3.7,nt,nt,21
COc1ccccc1CCC(=O)OCC(=O)c1c(N)n(CC(C)C)c(=O)n(C)c1=O,1,11,-12,0.4,-2.3,-0.1,0,-6
CC(=O)c1ccc(OC(=O)C2CC(=O)N(c3cccc(C)c3)C2)cc1 (stereo not given),3,11,2.2,-5.1,-2.3,0.1,-16,-5
CCc1nonc1NC(=O)c1oc2ccc(Cl)cc2c1C,-3,0,2.7,nt,-2.0,nt,nt,-4
O/N=C/c1ccc(OCc2ccccc2)c(Br)c1,0,-1,nt,2.1,2.6,-5.0,-8,11
O=C(Nc1ccc(S(=O)(=O)N2CCCCC2)cc1)c1ccc(F)cc1,-6,3,nt,-14,?,0.0,6,2
Cn1c(CN2CCCC2)c(C#N)c2ccccc21,19,-9,0.8,0.4,-0.5,-0.7,0,-4
Cc1cc2c(c(=O)n1Cc1cccnc1)C(c1ccccc1)C(C#N)=C(N)O2 (stereo not given),-6,1,-2.4,-3.2,?,0.3,-8,-23
CCOC(=O)c1ccc(NC(=O)N2CCN(c3ccccc3OC)CC2)cc1,?,-3,5.1,0.5,27*,-0.2,5,-2
COc1ccccc1OCc1nc(-c2ccc([N+](=O)[O-])cc2)no1,2,-16,2.3,-2.2,6.6,-2.5,0,24
CCc1cccc2c(C(=O)CN3C(=O)NC(C)(c4cccc5ccccc45)C3=O)c[nH]c12 (stereo not given),-9,5,0.1,-3.4,0.5,0.0,-8,66*
Nc1nc(Nc2ccccc2F)sc1C(=O)c1ccccc1,29,8,3.8,3.4,2.1,-6.2,4,-4
Cn1c(CCCOc2ccc(Cl)cc2Cl)nnc1SCC(=O)Nc1cccc(F)c1,0,-15,1.0,-5.4,-0.2,1.2,-7,-9
CC1=NN(c2ccccc2)C(=O)C1c1ccccc1 (stereo not given),2,-5,1.4,-6.1,-1.6,-0.3,7,-16
O=C(CN1CCN(c2ccc(O)cc2)CC1)Nc1ccc2c(c1)OCCO2,-3,2,2.9,-4.7,-0.9,-1.3,-2,7
c1ccc(-c2nc3ccccn3c2NC2CCCC2)nc1,-3,-9,2.1,1.2,-3.5,1.0,nt,-13
CCc1ccc(/C(C)=N/NC(=O)c2ccccn2)cc1,-11,-11,nt,-2.8,0.6,0.8,1,11
CCOc1ccc(C(=O)Nc2ccc(N3CCN(C)CC3)cc2)cc1Br,-6,13,-20,-4.7,2.8,-0.6,9,33
# (next part)
SMILES,Calb FLC,Beta2AR agonist,UCH37 DUB inh,LANA-H2B inh,RanGTP-Impb inh,A1 inh,Beta cell apopt,T cruzi inh
CCC(=O)OC1(C)C(=O)C=C2C=C(C3CC3)OC=C2C1=O (stereo not given),0,4,3.3,-0.7,4.2,0.1,1,25
Cc1ccc(C(=O)NC(NCc2ccccc2)C(Cl)(Cl)Cl)cc1 (stereo not given),9,1,5.8,0.5,-3.1,-0.5,5,5
CSc1nnc2c3cc(C)ccc3n(Cc3ccccc3)c2n1,13,28,2.6,1.2,0.3,0.5,-2,22
Cc1ccccc1C1N(c2nccs2)C(=O)C2CCCN21 (stereo not given),-6,-3,5.9,-1.5,-1.4,1.6,-2,-7
N#C/C(C(=S)Nc1ccccc1)=C1/NN=C(N2CCOCC2)N1c1ccccc1,-12,-3,12,0.8,-0.1,0.2,9,3
Cc1ccc(C2CC(c3ccccc3)=NN2C(=O)CSc2nnc(-c3ccc(Cl)cc3)o2)o1 (stereo not given),-12,-12,1.4,3.1,5.9,-0.3,-4,6
Cc1ccc(NC(=O)N/C=C/c2ccco2)cc1,-20,8,0.3,-2.7,-5.4,0.6,-4,-14
CN(CC(=O)Nc1ccc(F)c(F)c1F)C(=O)CN1C(=O)C2CCCCC2C1=O (stereo not given),-7,-1,1.5,-2.4,-2.2,1.0,-5,7
CC(=O)NN1C(=O)/C(=C\c2ccccc2)SC1=S,12,1,nt,0.4,-0.4,0.2,2,3
O=C(Cc1ccc(NS(=O)(=O)c2cccc(C(F)(F)F)c2)cc1)NCCN1CCOCC1,7,-4,-1.0,1.8,5.2,0.0,4,0

# Assay outcomes (PubChem)

# Rows were taken by chance. Share with any hit: about 4.3%.
